# HPGD block – qHTS Assay for Inhibitors of HPGD (15-Hydroxyprostaglandin Dehydrogenase); 15-hydroxyprostaglandin dehydrogenase [NAD(+)] (Homo sapiens), P15428; purified HPGD, NADH fluorescence kinetic, PGE2 substrate; Potency, µM, for inactives: at the highest dose activity change, negative = inhibition, most hits filed as inhibitors; 4.3% of 150,000 active; active = well fitted inhibition curve with a large enough effect (not every such curve was filed as active); inconclusive = small, poorly fitted or top-dose-only effect, or another doubt; inactive = no such curve, though single readings can be large or run the other way;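 also: top concentration of the series not given in the record; plate controls included wells without enzyme; inactives centre near -10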
# Target sequence (P15428 whole entry, looked up): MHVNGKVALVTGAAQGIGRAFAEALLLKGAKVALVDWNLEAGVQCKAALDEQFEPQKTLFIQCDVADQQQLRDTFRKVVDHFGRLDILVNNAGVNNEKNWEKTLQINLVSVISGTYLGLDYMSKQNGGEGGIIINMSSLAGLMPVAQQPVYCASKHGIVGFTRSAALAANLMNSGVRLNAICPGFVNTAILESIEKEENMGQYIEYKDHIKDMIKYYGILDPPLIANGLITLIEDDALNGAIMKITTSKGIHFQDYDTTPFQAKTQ
#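 20 nM HPGD preincubated 15 min at room temperature with compound in 50 mM Tris-HCl pH 8, 0.01% Tween 20. Started with 1 mM NAD+ and 30 uM prostaglandin E2; NADH fluorescence (360/450 nm) read 5 times over 30-s intervals, last minus first.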
# Numbers without * were called inactive; u = inconclusive; & = joins results of further samples. % is scaled to controls: 0 for no effect and ±100 for the full control effect; potency is read from the fitted curve at half-maximal effect.
HPGD block,mol
-19%,C[C@]12CC[C@@H]3c4ccc(O)cc4CC[C@H]3[C@@H]1CC[C@@H]2OC(=O)CCC(=O)O
u,C=CCn1c(SCC(=O)OC)nc2sc3c(c2c1=O)CCN(C)C3
-13%,CC(=O)N1[C@H](Cc2ccccc2)C=C[C@]1(C)C(=O)O
-1%,CCOc1ccc(-n2c(Cc3cc(=O)[nH]c(=O)[nH]3)nnc2SCC(=O)OC)cc1
25µM*,CC(C)(C)Nc1ncnc2c1cnn2-c1ccccc1
-10%,Cc1ccc(N=Nc2ccc(O)c(/C=N\NC(=O)c3ccc(N)cc3)c2)cc1C
-10%,COc1ccc(-n2nnnc2-c2cccc(OC)c2)cc1
-15%,CCCn1c(O)c(N=NC(=O)c2ccco2)c2ccccc21
-20%,O=C(CSCc1ccccc1)N1CCN(C(=O)c2ccco2)CC1
-17%,O=[n+]1c2c(n([O-])c3c1CCCC3)CCCC2
-12%,COC(=O)c1ccc(Oc2nc(N(C)C)nc(N3CCOCC3)n2)cc1
-10%,Cc1ccc(N(C(=O)c2sc(C)nc2C)C(C(=O)NCc2ccco2)c2ccccc2)cc1 (stereo unspecified)
-2%,CS/C(=N/S(=O)(=O)c1ccc(C)cc1)c1ccccc1
-14%,CSc1cccc(NS(=O)(=O)c2ccc3c(c2)oc(=O)n3C)c1
-22%,Cc1cc(C)cc(NCC(=O)Nc2c(C)cccc2C)c1
-13%,CCC(CC)NC(=O)/C=C/c1cccc([N+](=O)[O-])c1
-1%,CC(C)n1nnnc1SCC(=O)NCc1ccc2c(c1)OCO2
-14%,CCN(CC)c1ccc(/C=C(\C#N)C(=O)NCc2ccco2)cc1
14µM*,CCOC(=O)C(=O)/C(=C\N(C)C)c1onc(-c2ccccc2Cl)c1C(=O)OC
-13%,CC1(C)N=C(c2ccccn2)C(C)(C)N1O
u,CCN1CCN(CCCNC(=O)c2cc3cc4ccc(OC)cc4nc3o2)CC1
u,CC1CCCN(c2oc(-c3cccc4ccccc34)nc2C#N)C1 (stereo unspecified)
-21%,CC(=O)C1=C(C)NC(SCC(=O)c2ccc(Cl)cc2)=C(C#N)C1CC(C)C (stereo unspecified)
-13%,Cc1onc(C(=O)N2CCN(C(c3ccccc3)c3ccccc3)CC2)c1[N+](=O)[O-]
u,CN(C)c1ccc(-c2noc(-c3ccccc3O)n2)cc1
-3%,O=C(Oc1ccccc1C(=O)N1CCOCC1)c1cccc(Br)c1
-5%,Cc1ccc(/C=C/C2=C[C@]3(C)C[C@]2(C)[C@H](c2ccc(C)cc2)CC3=O)cc1
-7%,COCCCNC(=O)c1c(NC(=O)C2COc3ccccc3O2)sc2c1CCCC2 (stereo unspecified)
-5%,Cc1ccc(S(=O)(=O)NCc2csc(C)n2)c(C)c1
-22%,CC(Sc1n[nH]c(=O)[nH]c1=O)C(=O)OCc1ccccc1 (stereo unspecified)

# Four compounds picked at random from the list so far, as already listed:
HPGD block,mol
25µM*,CC(C)(C)Nc1ncnc2c1cnn2-c1ccccc1
-12%,COC(=O)c1ccc(Oc2nc(N(C)C)nc(N3CCOCC3)n2)cc1
-21%,CC(=O)C1=C(C)NC(SCC(=O)c2ccc(Cl)cc2)=C(C#N)C1CC(C)C (stereo unspecified)
-13%,Cc1onc(C(=O)N2CCN(C(c3ccccc3)c3ccccc3)CC2)c1[N+](=O)[O-]

# (more compounds)
HPGD block,mol
4%,C[N+](C)(C)CCCN1C(=O)CCCC1=O
-22%,CCOC(=O)C1=NN(c2ccc(C)cc2)C2(S1)SC(C(C)=O)=C(C)N2c1ccccc1 (stereo unspecified)
-1%,C[N+]12CCCCC1C(COC(=O)c1ccc3c(c1)OCO3)CCC2 (stereo unspecified)
-10%,O=c1c(Oc2ccccc2Br)c(C(F)(F)F)oc2c(CN3CCCC3)c(O)ccc12
-2%,Cc1cccc([N+](=O)[O-])c1C(=O)O
-16%,O=C(Nc1cccs1)Nc1c(F)c(F)cc(F)c1F
-13%,CCS(=O)(=O)c1ccc2c(c1)N(S(=O)(=O)c1ccccc1)CC(C(=O)O)O2 (stereo unspecified)
-14%,Cc1ccc(CC2S/C(=C(/C#N)C(=O)N3CCOCC3)N(c3ccccc3)C2=O)cc1 (stereo unspecified)
-11%,COCCN1Cc2cccc(C(=O)N3CCN(c4cc(C)ccc4C)CC3)c2C1=O
1%,N#Cc1ccccc1NC(=O)CC1c2ccccc2Oc2ccccc21
-12%,O=C(O)C1CSC2(CCN(Cc3ccccc3)CC2)N1 (stereo unspecified)
u,CCOc1cc(S(=O)(=O)NCC2OCCc3ccccc32)c(OCC)cc1-n1cnnn1 (stereo unspecified)
-26%,Cc1ccc(NC(=O)N(Cc2cccs2)Cc2cc3cc4c(cc3[nH]c2=O)OCO4)cc1
-20%,O=C(Nc1ccc2nc(-c3cccs3)[nH]c2c1)c1ccco1
-17%,CCOC(=O)c1nn(-c2cccc(OC)c2)c2nc(CC)c(C#N)c(=O)n12
-10%,Cc1ccc(C(=O)NC(=S)Nc2ccc(Oc3ccc(Cl)cc3)cc2)cc1
u,COc1cc(/C=C/C(=O)OCC(=O)NC(=O)NC23CC4CC(CC(C4)C2)C3)ccc1OCC#N
-5%,CCSc1nnc(NC(=O)C2CCN(S(=O)(=O)c3ccccc3C(F)(F)F)CC2)s1
-19%,O=C(NCc1ccco1)C1CC(c2c(Cl)cccc2Cl)=NO1 (stereo unspecified)
u,Cc1cccc(/C=N/NC(=O)c2cc3c(s2)-c2ccccc2CC3)c1
1%,CC(C)(C)c1cc(C(=O)O)c(CN2CCCCC2)o1
u,O=C(Nc1ccc2c(c1)CCC2)C1CCN(c2c3c(nc4ncnn24)CCC3)CC1
-2%,COc1cccc(-c2nc(CS(=O)(=O)CC(=O)N3CCN(C4CCCCC4)CC3)c(C)o2)c1
-11%,CCOCCn1c(CN2CCN(CC)CC2)nc2c1c(=O)n(C)c(=O)n2C
u,COc1ccc2nc(C)cc(SCC(=O)NNC(=O)COc3cccc4ccccc34)c2c1
-12%,COC(=O)c1cccc(NC(=O)Cn2nnc3ccccc32)c1
-16%,O=C(O)CCCC(=O)Nc1nc(-c2ccc(F)cc2)cs1
-3%,CCc1nnc(NC(=O)C(C)Sc2ccccc2)s1 (stereo unspecified)
-3%,O=C1CN(c2nc(-c3ccccc3)c3cc(Cl)ccc3n2)c2ccccc2N1
u,Cc1cc(=O)n(C)c(=O)n1CCCCCCOc1cccc([N+](=O)[O-])c1

# Next compounds follow:
HPGD block,mol
-25%,Cn1c(=O)oc2cc(S(=O)(=O)NCc3ccccc3)ccc21
-10%,C=CCn1c(SCc2cc(=O)n3ccsc3n2)nnc1C1CCCCC1
-3%,CC1=C(C(=O)Nc2ccc(Cl)cc2)C2(CCCCC2)C(C(N)=O)C(=S)N1 (stereo unspecified)
3%,OC1=C(O)c2nc3ccccc3nc21
-9%,O=C(NNS(=O)(=O)c1ccccc1[N+](=O)[O-])c1cccc(Cl)c1
-14%,CC(=O)N[C@H](Cc1c[nH]c2ccccc12)C(N)=O
-3%,c1ccc(Cn2c(CN3CCCC3)nc3ccccc32)cc1
-1%,Cc1cc(-n2c(SCCC#N)nnc2-c2cccnc2)ccc1Cl
-7%,CSc1ncc2c(n1)-c1cc(C)ccc1SC2
u,Cc1ccc(S(=O)(=O)C(C#N)c2nc3ccccc3nc2N2CCC(C)CC2)cc1 (stereo unspecified)
-16%,CS(=O)(=O)N1CCCC(C(=O)NCCc2ccccc2)C1 (stereo unspecified)
-9%,c1coc(CNCCCN2CCOCC2)c1
0%,O=C1N/C(=C/c2cccn2-c2ccccc2)C(=O)N1c1cccc(Cl)c1
-1%,COc1cc(CNC(=O)OCC(C)C)cc(OC)c1OC
u,O=c1oc2c(CN3CCCCCC3)c(O)ccc2cc1-c1nc2ccccc2[nH]1
-13%,Cc1cc(C)n(-c2nc3ccccc3c(=O)n2OCCOc2ccccc2)n1
-14%,CCNC(=O)COC(=O)c1ccc(S(=O)(=O)N2CCCCCC2)cc1
-17%,COCc1c(C(N)=O)nnn1-c1nonc1N
-15%,O=C(Cc1ccc(Cl)cc1)Nc1ccccc1Sc1ccccc1
-7%,CCn1c(SCC(=O)Nc2ccccc2-c2ccccc2)nnc1-c1ccoc1C
-7%,O=C(Nc1ncnc2sc3c(c12)CCCCC3)c1ccc(F)cc1
-5%,Cc1ccc(Oc2nsnc2N2CCOCC2)cc1
-4%,CN(C)S(=O)(=O)N1CCN(C(=O)N(c2ccccc2)c2ccccc2)CC1
20µM*,COc1ccc2c(c1)CCc1c(C(=O)N3CCCC3)noc1-2
u,COCC(C)NC(=O)c1cc(-c2ccc(O)cc2)on1 (stereo unspecified)
u,O=C1CC(c2ccc(F)cc2)Cc2nc(N3CCN(c4ccccc4)CC3)ncc21 (stereo unspecified)
-10%,O=C(CCCCn1c(=O)c2ccccc2n(Cc2ccc(F)cc2Cl)c1=O)NCc1ccco1
-7%,Cc1ccsc1/C=N/n1c(=S)[nH]nc(C)c1=O
-9%,COC(=O)c1cc2occc2n1Cc1ccc(Cl)cc1
-20%,COC(=O)N/N=C\c1c(C)nn(-c2ccccc2)c1Cl

# The list continues:
HPGD block,mol
0%,COc1ccc(S(=O)(=O)N(C)CC(=O)NC2CC2)cc1
1%,NC(=O)c1oc2ccc(Cl)cc2c1NC(=O)CN1CCOCC1
-9%&-12%&-6%,FC(F)(F)c1ccccc1-n1ccnc1
-3%,CC1C/C(=N\NC(=S)NC(C)C)CC(C)(C)C1 (stereo unspecified)
-22%,CCCCCn1c(N)c(-c2nc3ccccc3o2)c2c([N+](=O)[O-])nn(C)c(=O)c21
u,COc1ccc(-c2nc3c(c(=O)[nH]c(=O)n3Cc3ccccc3)n2C)cc1
-10%,COc1ccc(C2Nc3ccccc3C(=O)N2c2ccc(Cl)cc2)cc1Cn1cc([N+](=O)[O-])cn1 (stereo unspecified)
-12%,CCC(C(=O)Nc1cnccn1)c1ccccc1 (stereo unspecified)
22µM*,Fc1ccccc1Nc1nc2c(s1)CCc1ccccc1-2
-6%,CCCN1C(=O)/C(=C/c2ccco2)SC1=Nc1ccc(OC)cc1
-6%,O=C(NCC1CCCO1)C(c1cccs1)N(C(=O)c1ccc(CN2CCOCC2)o1)c1ccc(Cl)cc1 (stereo unspecified)
-12%,COCCNC(=O)C(c1ccc(C)o1)N(C(=O)c1snc(C(N)=O)c1N)c1ccc(C)c(C)c1 (stereo unspecified)
-8%,Cc1cccc(NC(=S)N(Cc2cccs2)Cc2cc3cc(C)ccc3[nH]c2=O)c1
-8%,O=C(c1ccccc1)c1ccc(OCCCN2CCCCC2)cc1
u,O=c1[nH]c(SCc2nc3ccccc3c(=O)n2-c2ccccc2)nc2ccccc12
2%,COc1ccccc1-n1c(C)nnc1SCC(N)=O
u,O=c1[nH]cnc2nc(-c3ccccc3)c(-c3ccccc3)nc12
u,O=C(Nc1ccc(S(=O)(=O)N2CCCCCC2)cc1)c1ccc(Br)o1
-8%,Cc1ccc(N=Nc2ccc(O)c3ncccc23)cc1
u,N/C(=N\OC(=O)c1cccc2ccccc12)c1cccc([N+](=O)[O-])c1
-3%,CCCCCOC(=O)CSc1nnc(-c2cc(OC)c(OC)c(OC)c2)o1
-18%,O=C(NC1CCCCC1)N(Cc1nc2ccccc2c(=O)[nH]1)C1CCCCC1
-8%,COc1cc(C2Nc3ccc4ncccc4c3C3=C2C(=O)CCC3)cc(OC)c1O (stereo unspecified)
-20%,COc1ccccc1-n1cnc2cc(NC(=O)c3ccco3)ccc21
-7%,O=S(=O)(c1ccc2ccccc2c1)N1CCN(S(=O)(=O)N2CCCCC2)CC1
-22%,COc1ccc(CCNC2=C(Cl)C(=O)N(CCc3ccc(OC)c(OC)c3)C2=O)cc1OC
-11%,CC1(C)Cc2c(c(=S)nc(-c3ccccc3)n2CCN2CCOCC2)CO1
-12%,Cn1c(=O)c2cc(S(=O)(=O)NCCC(=O)NCCC3=CCCCC3)ccc2n(C)c1=O
-5%,CC(=O)Nc1ccc(NC(=O)CCC(=O)NCCO)cc1
u,COc1ccc(C(=O)N2c3ccccc3C(=O)OC2c2ccc3c(c2)OCO3)cc1 (stereo unspecified)

# Sorted by length of the SMILES (ascending): some entries from above
HPGD block,mol
-14%,CCNC(=O)COC(=O)c1ccc(S(=O)(=O)N2CCCCCC2)cc1
u,Cc1cccc(/C=N/NC(=O)c2cc3c(s2)-c2ccccc2CC3)c1
-22%,CCOC(=O)C1=NN(c2ccc(C)cc2)C2(S1)SC(C(C)=O)=C(C)N2c1ccccc1 (stereo unspecified)

# Next part.
HPGD block,mol
-2%,O=C(c1cc(N2C(=O)C3C4CCC(C4)C3C2=O)ccc1Cl)N1CCN(c2ccccc2)CC1 (stereo unspecified)
-8%,O=C(O)C1CC=C(Cl)CC1C(=O)NCc1ccccc1 (stereo unspecified)
0%,CCCn1c(C)nc2c(NCCN(C(C)C)C(C)C)nc(C)nc21
-11%,Cc1ccccc1NC(=O)c1ccc(CSc2ncccn2)cc1
-9%,O=C(Nc1ccc(N2CCOCC2)cc1N1CCOCC1)c1ccco1

# 4 compounds already listed, arranged by their value in HPGD block, descending.
Compound,HPGD block
CCCn1c(C)nc2c(NCCN(C(C)C)C(C)C)nc(C)nc21,0%
O=C(O)C1CC=C(Cl)CC1C(=O)NCc1ccccc1 (stereo unspecified),-8%
O=C(Nc1ccc(N2CCOCC2)cc1N1CCOCC1)c1ccco1,-9%
Cc1ccccc1NC(=O)c1ccc(CSc2ncccn2)cc1,-11%

# Not all compounds are listed, so the mix of outcomes need not match the whole.
